HSD17B inh: inhibitors of human HSD17B10 dehydrogenase | Potency, µM (top dose mostly 57.1 µM), inactives show top-dose activity change, negative = inhibition, most hits filed as inhibitors | Q99714 | 7.6% of 75,000 active | AID 893 | recombinant HSD17B10, NADH fluorescence kinetic; many of its hits are not listed in these tables; active = well fitted inhibition curve with a large enough effect; inconclusive = small, poorly fitted or top-dose-only effect; inactive = no such curve, though single readings can be large or run the other way;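 note: the protocol describes HADH2 (HSD17B10) and not the HSD17B4 of the title; nearly all actives have a fitted effect of over 70% in size; most hits overshoot -100% by far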
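Enzyme plus compound, 15 min room temperature; substrate mix added (NAD+ 1 mM, beta-hydroxybutyryl-CoA 90 uM final); plates read kinetically for NADH fluorescence. HADH2 was His-tagged, E. coli-derived, 20 nM.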
* marks the source's active call; other numbers are inactive results; ? = inconclusive; & = joins results of further samples; [ ] = remark or other dose. % is set by controls: 0 for no effect and ±100 for the full control effect; potency is the fitted concentration of half-maximal effect.

SMILES,HSD17B inh
NCC(N)C(=O)c1ccccc1 (stereo not given),-9.9%
Cc1c2cnn(CC(=O)N3CCC4(CC3)OCCO4)c(=O)c2c(C)n1Cc1ccccc1,-8.0%
CCOC(=O)c1c(C)n(Cc2ccco2)c2ccc(O)cc12,-16.9%
C/C=C/C=O,-4.0%
C[C@H]1CC[C@@]2(NC1)O[C@@H]1C[C@H]3[C@@H]4CC=C5C[C@@H](O)CC[C@]5(C)[C@@H]4CC[C@]3(C)[C@@H]1[C@@H]2C,-1.2%[25.6 µM]
Cc1o[nH]c(=O)c1C[C@@H](N)C(=O)O,-1.0%
CN(C)C(=S)SSC(=S)N(C)C,12.6µM*
Cc1cccc(NC(=O)c2cnc3sccn3c2=O)n1,?
CCOC(=O)C1CCN(/C=C2/C(=O)NC(=O)N(Cc3ccco3)C2=O)CC1,?
Nc1ccc(Cl)cc1,-10.8%
Cc1cc(S(=O)(=O)NC(C)C)ccc1OCC(=O)N1CCN(Cc2ccc3c(c2)OCO3)CC1,2.6%
O=C1NC(=O)N(Cc2ccccc2Cl)C(=O)/C1=C/N1CCOCC1,-10.9%
CC(C)CC(C)N (stereo not given),1.5%
C=C1[C@@H](O)C2C=CC[C@H](C)C(=O)[C@@](C)(O)C=C[C@@H](OC(C)=O)[C@@]23C(=O)N[C@H](Cc2ccccc2)[C@@H]3[C@@H]1C (stereo not given in full),-19.7%
O=C(O)C(Br)Br,-0.8%
CC[C@H]1CN2CC[C@@H]1C[C@H]2[C@@H](O)c1ccnc2ccc(OC)cc12,?
Cc1ccc(CN2C(=O)NC(=O)C3(Cc4c(nc5ccccn5c4=O)N4CCCCCC43)C2=O)cc1 (stereo not given),2.2%
Cn1c(C(=O)N2CCC3(CC2)OCCO3)cc2c(=O)n(C)c3ccccc3c21,-4.6%
c1ccc(CN2CCC3(CCNCC3)CC2)cc1,5.5%
Cc1ccc2nsnc2c1NS(=O)(=O)c1c(C)ccc2nsnc12,?
COC(=O)C1C(c2ccccc2)C2C(=O)c3c(OC)cc(OC)cc3O[C@@]12c1ccc(OC)cc1 (stereo not given in full),1.2%[11.4 µM]
NCCCN1CCN(c2ccccc2)CC1,9.0%[11.4 µM]
CC1=CC[C@@H]2[C@@H](C1)c1c(O)cc(CC#CCCCNS(C)(=O)=O)cc1OC2(C)C,-19.5%
COc1ccccc1N1CCN(C(CNC(=O)Oc2ccccc2)c2cccnc2)CC1 (stereo not given),-0.4%
CCOc1ccc(N)cc1,3.6%
Oc1ccc2c3c1O[C@@H]1[C@@H](O)CC[C@]4(O)[C@H](C2)N(CC2CCC2)CC[C@@]314,11.4%
CSSC,-8.1%
C[C@]12CCC(=O)C=C1CCc1ccc(O)cc12,-3.7%
C[C@H]1C(=O)O[C@@H]2CCN3CC=C(COC(=O)[C@@](C)(O)[C@@]1(C)O)[C@H]23,-2.4%[25.6 µM]
CC(=O)Oc1ccc(Cl)c2cccnc12,-0.7%
N[C@@H](Cc1cc(Br)c(O)c(Br)c1)C(=O)O,?
C[C@H]1CC[C@@]2(NC1)O[C@@H]1C[C@H]3[C@@H]4CC[C@@H]5C[C@@H](O)CC[C@@]5(C)[C@@H]4CC[C@]3(C)[C@@H]1[C@@H]2C,-1.6%[25.6 µM]
N[C@@H](Cc1ccccc1)P(=O)(O)O,8.1%[11.4 µM]
O=c1[nH]c(=O)n(CCc2ccc(F)cc2)c(O)c1C=NCCCn1ccnc1,-1.4%
Cc1ccnc(-n2c(C)nc3ccccc3c2=O)c1,7.4%
CCCCCOC(=O)c1ccccc1C(=O)OCCCCC,-1.1%
c1csc(CN2CC3(CCNCC3)C2)n1,10.2%
CCC(=NCc1cccnc1)c1c(O)n(C2CCCCC2)c(=O)[nH]c1=O,3.6%
CCOCCOC(C)=O,2.3%
N#Cc1c(Cl)cccc1Cl,1.3%
COc1ccc(C=O)cc1OC,1.8%
COC1=CC(=O)O[C@@H](/C=C\c2ccccc2)C1,-3.1%[25.6 µM]
C[C@H]1CC[C@@]2(NC1)O[C@@H]1C[C@@H]3[C@@H]4CC=C5C[C@@H](O)CC[C@]5(C)[C@@H]4CC[C@]3(C)[C@H]1[C@@H]2C,8.1%[11.4 µM]
O=C(Nc1ccc2c(c1)OCO2)c1cn(Cc2ccc(F)cc2)nn1,-5.2%
CC(=O)N(C1=NCCCS1)c1ccc(F)cc1,16.6%
NC[C@@H](Cc1ccccc1)P(=O)(O)O,-1.9%[11.4 µM]
CCCN(C/C=C\I)[C@@H]1CCc2ccc(O)cc2C1,-3.4%
Cc1ccc(N)c(C)c1,-0.1%
N[C@@]1(C(=O)O)CC[C@H](C(=O)O)C1,-10.6%&5.9%&-5.0%
Cc1ccc(C2SCC(=O)Nc3c2c(=O)[nH]n3C2CCOC(C)(C)C2)cc1 (stereo not given),3.4%
COC1=CC(=O)OC(CCc2ccccc2)C1 (stereo not given),-1.0%
CC(C)NC(=O)N1CCC2(CC1)CCN(C(=O)Oc1ccccc1)CC2,2.7%
C[C@@]1([C@@H](NP(=O)(c2ccccc2)c2ccccc2)c2ccccc2)C[C@H]1CCO,-0.6%
CCC(=NC1CC1)c1c(O)n(C2CCCCC2)c(=O)[nH]c1=O,0.3%
C=Cn1ccnc1P(=S)(c1ccc(N(C)C)cc1)c1nccn1C=C,-11.2%
CC(C)=CCC12CN3CCN(CC(C3)C1=O)C2,-8.2%
N#CC(Cl)(Cl)Cl,-1.1%
C=CCN1C(=O)C2(C(C(=O)OCC)=C(N)Oc3c2c(=O)oc2ccccc32)c2ccccc21 (stereo not given),6.2%
CCCCCCCCCCCCCCCC[N+](C)(C)C,-21.7%
CCCS(=O)(=O)N1CCCC(C(=O)N2CCC3(CC2)OCCO3)C1 (stereo not given),1.6%

(cont.)
SMILES,HSD17B inh
NC(=S)Nc1ccccc1,-0.7%&-0.6%
CC1(C)CC(=O)C=C(NCCN2CCN(C(=O)Cc3ccc(Cl)cc3)CC2)C1,8.8%
COc1ccc(N)cc1,0.5%&-2.8%
CCN(CC)CCCN=Cc1c(O)n(-c2cccc(C)c2C)c(=O)[nH]c1=O,-8.3%
O=C(O)c1nn(Cc2ccc(Cl)cc2Cl)c2ccccc12,-10.0%
Cn1c(O)c(C=NCCCN2CCCC2=O)c(=O)n(C)c1=O,3.0%
C=C[C@H]1CN2CC[C@@H]1C[C@H]2[C@@H](O)c1ccnc2ccccc12,-0.9%&5.7%[25.6 µM]
CN1CCN(C(=O)COc2ccc3ccccc3c2Br)CC1,-19.0%
Oc1c(Cl)cccc1Cl,-1.4%
O=C1CCCC2C3CCCN4CCCC(CN12)C34 (stereo not given),3.6%
Cn1ncnc2c(=O)n(C)c(=O)nc1-2,-20.9%
COC(=O)[C@H]1[C@H](c2ccccc2)C(=O)[C@@]2(O)c3ccccc3O[C@@]12c1ccccc1,5.6%[11.4 µM]
COc1nc(NC(C)C)nc(NC(C)C)n1,14.8%
c1cnc(N2CC[C@@]3(CCCNC3)C2)nc1,?
CCCC(=O)Nc1ccc(N2CCN(CC)CC2)c(Cl)c1,-4.5%
COc1ccc2c(c1)[C@]13CCCC[C@@H]1[C@H](C2)N(C)CC3,4.2%
CN1CCC(c2c[nH]c3ccc(O)cc23)CC1,-2.6%&-9.0%
CC(=NCCCN1CCOCC1)c1c(O)[nH]c(=O)[nH]c1=O,4.2%
Cc1ccc2occ(CN3CC4CC(C3)c3cccc(=O)n3C4)c(=O)c2c1 (stereo not given),-0.6%
CN[C@@H]1C[C@@H](c2ccc(Cl)c(Cl)c2)c2ccccc21,-2.6%
COC1C(O)C(C)O[C@@H](OC2CC[C@@]3(C)C4CC[C@]5(C)C(C6=CC(=O)OC6)CC[C@@]5(O)C4CC[C@@H]3C2)C1O (stereo not given in full),0.9%
Cc1ccc(C)c(NC(=O)CSc2nnc([C@@H](N)Cc3c[nH]c4ccccc34)o2)c1,-28.4%
COc1ccccc1N(CC(=O)NC1CCCCC1)C(=O)c1cnn(C(C)C)c1,6.8%
Cl.Cl.Cl.Cl.Cl.Cl.N.N.N.N.NNNNN.NNNNN.O.O.[Ru].[Ru].[Ru],-13.6%
O=C(C1CCN(c2nc3ccc(Br)cc3s2)CC1)N1CCC2(CC1)OCCO2,-0.5%
CC1=NN=C(c2ccc(N)cc2)c2cc3c(cc2C1)OCO3,3.8%&-8.7%
CN(C)CCN(C)CCc1ccc(Cl)c(Cl)c1,0.9%
CCOc1ccccc1-n1c(O)c(C=NCc2ccc3c(c2)OCO3)c(=O)[nH]c1=O,-3.1%
N#Cc1ccc(CN2CC[C@@]3(CCCNC3)C2)cc1,-6.2%
CCc1cccc2c(C#N)cn(CC(=O)N3CCOCC3)c12,-9.7%
COc1ccc(OC)c(CN2CCN(C(=O)COc3cccc(C)c3)CC2)c1,-4.3%
OCCBr,3.7%
CC(C)OC12Oc3ccccc3C=C1N1CCC2CC1 (stereo not given),0.8%
CN[C@H](Cc1ccccc1)c1cccc(OC)c1O,5.2%[11.4 µM]
COc1cccc(-c2nc(CS(=O)CC(=O)N3CCC4(CC3)OCCO4)c(C)o2)c1 (stereo not given),0.2%
CCCCC/C=C\C/C=C\C/C=C\C/C=C\CCCC(=O)NCC(=O)O,7.94µM*
O=c1ccc(=O)[nH][nH]1,-3.3%
COC(=O)[C@@]1(Cc2ccccc2)[C@H]2c3cc(C(=O)N(C)C)n(C)c3C[C@H]2CN1C(=O)c1ccccc1,1.5%
CC(C)n1cnc2c(C(=O)N[C@H]3CN4CCC3CC4)cc(Cl)cc21,-10.6%
CN(C)CCN=Cc1c(O)n(-c2cccc3ccccc23)c(=O)[nH]c1=O,-23.3%
NNc1nncn1N,-16.5%[11.4 µM]
N#CC(C(=O)C12CC3CC(CC(C3)C1)C2)c1nc2ccccc2[nH]1 (stereo not given),?
Cc1ccccc1-n1c(O)c(C=NCCN2CCOCC2)c(=O)[nH]c1=O,2.5%
CN(C(=O)Cc1ccccc1)[C@H](CN1CCCC1)c1ccccc1,14.7%
CC1(C)CC(=O)C(C=NCCN2CCN(C(=O)Cc3ccc(Cl)cc3)CC2)=C(O)C1,2.7%
Nc1ccc(-c2ccccc2)cc1,?
Clc1ccc(C(c2ccc(Cl)cc2)C(Cl)Cl)cc1,-1.9%
Cc1ccc2cc3cc(C(=O)N4CCC5(CC4)OCCO5)oc3nc2c1,12.6µM*
COCCOC(=O)C1=C(C)OC(N)=C(C(=O)OC)C12C(=O)Nc1ccccc12 (stereo not given),-4.9%
COc1ccc(CC2c3cc(OC)c(OC)cc3CCN2C)cc1OC (stereo not given),?
Cc1cccc(C)c1NC1=NCCCCS1,8.8%
CC(C)=CCCC1(C)C=Cc2c(O)c3c(c(CC=C(C)C)c2O1)OC12C(=CC4CC1C(C)(C)OC2(C/C=C(/C)C(=O)O)C4O)C3=O (stereo not given),10µM*
OCCN(CC#CC(O)(c1ccccc1)C1CCCC1)CCO (stereo not given),2.8%
Cn1c(O)c(C=NCc2cccs2)c(=O)n(C)c1=O,3.9%
ClC(Cl)C(Cl)Cl,3.7%
O=C(COc1ccc(S(=O)(=O)N2CCCCC2)cc1)N1CCN(Cc2ccccc2)CC1,-13.9%
NC(CCl)=N[C@H]1CN2CCC1CC2,-0.5%[11.4 µM]
O=C(c1csnn1)N1CCC[C@@]2(CCN(Cc3ccncc3)C2)C1,1.5%
C[C@@H](N)Cn1ccc2cc(F)c(Cl)cc21,4.8%
C[C@H](c1ccccc1)N1CCN([C@@H](C)c2ccccc2)CC1,5.0%[11.4 µM]

Part of the list above, reformatted.
Compound: ClC(Cl)C(Cl)Cl
  HSD17B inh: 3.7%

Compound: Cc1ccccc1-n1c(O)c(C=NCCN2CCOCC2)c(=O)[nH]c1=O
  HSD17B inh: 2.5%

Compound: O=C(COc1ccc(S(=O)(=O)N2CCCCC2)cc1)N1CCN(Cc2ccccc2)CC1
  HSD17B inh: -13.9%

Compound: O=C(c1csnn1)N1CCC[C@@]2(CCN(Cc3ccncc3)C2)C1
  HSD17B inh: 1.5%

Following part:
SMILES,HSD17B inh
O=[N+]([O-])c1cccc(O)c1,-5.3%
CS(=O)(=O)N1CCC2(CCCN(Cc3ccncc3)C2)CC1,-6.4%
CCN(CC)c1ccc(N=Cc2c(O)n(CCC3=CCCCC3)c(=O)[nH]c2=O)cc1,3.6%
O=c1[nH]c(=O)n(-c2cccc(Cl)c2)c(O)c1C=NCCCN1CCOCC1,7.7%
O=C(c1ccncc1)C12CN3CN(CN(C3)C1)C2,2.1%
C=CC(=O)OCCO,1.0%
COc1ccc(OC)c(CC(=O)O)c1,6.5%
O=[N+]([O-])c1cccc2c([N+](=O)[O-])cccc12,7.8%
CCCN(CCC)[C@H]1CCc2c(F)ccc(O)c2C1,-8.0%&-10.7%
ClC(Cl)Br,-4.7%
COc1ccc(CCn2c(O)c(C=NCc3cccnc3)c(=O)[nH]c2=O)cc1OC,-12.5%
N[C@@H](CCCCP(=O)(O)O)C(=O)O,5.4%
CCC(=O)c1c(O)n(C2CCCCCC2)c(=O)[nH]c1=O,6.3%
CCOC(=O)c1ccc2[nH]c(-c3ccc(S(=O)(=O)F)cc3)cc(=O)c2c1,2.2%[11.4 µM]

Screening results from PubChem.

A portion of the library; rates above refer to the full screens.
